StopGo reporter: lowers the luciferase signal of an FMDV 2A StopGo reporter. hit rate 1.2% among 410,000. AID 1159524. human cells with a luciferase reporter of 2A StopGo recoding; control for the full effect not named in the record. Potency, µM (titrated, usually from 57.9 µM), without a hit: at the top dose signal change, negative = less light; active = well fitted falling curve with a large enough effect; inconclusive = small, poorly fitted or top-dose-only effect; inactive = no such curve, though single readings can be large or run the other way; tested in HEK293T cells; also: % is scaled to controls: 0 for no effect and ±100 for the full control effect; nearly all actives have a fitted effect of over 45% in size; luciferase light after 4 h
NS1 function inh: influenza NS1 inhibition | S. cerevisiae slowed by influenza A NS1, growth recovery by OD600 | Potency, µM (doses to about 46.1 µM), inactives show at the highest dose activity, positive = more growth | hit rate 0.4% among 270,000; active means well fitted rising curve with a large enough effect; inconclusive means small, poorly fitted or top-dose-only effect; inactive means no such curve, though single readings can be large or run the other way; also: nearly all actives have a fitted effect of over 50% in size
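S. cerevisiae expressing influenza A NS1, grown in glucose, washed, then diluted 1:100 into pH 6.0 -URA galactose medium with 23 nl compound. Growth recovery read as OD600; NS1-free strain serves as control.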
Cruzain Triton: inhibitors of Trypanosoma cruzi cruzain with detergent. P25779. purified cruzain, Z-FR-AMC fluorescence, 0.01% Triton. Potency, µM, for the others: max response, negative = inhibition, usual class: inhibitors. hit rate 0.43% among 200,000;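 also: plate controls were neutral wells for no effect and buffer without enzyme for full effect; nearly all actives have a fitted effect of over 40% in size; top concentration of the series not given in the record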
Target sequence (P25779 123-467 limits assumed): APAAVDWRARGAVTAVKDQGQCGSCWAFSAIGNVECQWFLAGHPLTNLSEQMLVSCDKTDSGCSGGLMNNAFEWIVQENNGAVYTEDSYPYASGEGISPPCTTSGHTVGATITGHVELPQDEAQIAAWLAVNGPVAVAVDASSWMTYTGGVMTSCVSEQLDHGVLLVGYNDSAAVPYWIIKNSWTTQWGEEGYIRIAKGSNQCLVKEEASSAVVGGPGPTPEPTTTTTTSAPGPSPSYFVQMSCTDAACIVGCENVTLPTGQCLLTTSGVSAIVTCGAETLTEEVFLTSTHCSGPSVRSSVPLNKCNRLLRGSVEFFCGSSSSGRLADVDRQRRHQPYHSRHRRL
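Read-out: AMC fluorescence (360 nm excitation, 450 nm emission), four reads over 2 min, first-to-third difference used. Conditions: cruzain 1.5 nM, Z-FR-AMC 2 uM, pH 5.5 acetate, 5 mM DTT, 0.01% Triton X-100.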
LASV entry inh: Lassa virus entry inhibition; Lassa virus pseudotype entry inhibition, cell reporter; control for the full effect not named in the record; Potency, µM (top dose mostly 37.9 µM), for inactives: at the highest dose activity change, negative = inhibition, most hits filed as inhibitors; hit rate 1.2% among 300,000; AID 540256; active means well fitted inhibition curve with a large enough effect; inconclusive means small, poorly fitted or top-dose-only effect, or effect the other way; inactive means flat fitted curve, though single readings scatter; tested in HEK293 cells; also: % is scaled to controls: 0 for no effect and ±100 for the full control effect; nearly all actives have a fitted effect of over 50% in size; luciferase read-out
RE007 growth inh: less growth of the S. pombe RE007 Vpr strain. hit rate 0.21% among 360,000. S. pombe RE007 Vpr strain, BacTiter-Glo ATP luminescence, 24 h; control for the full effect not named in the record. Potency, µM (top dose mostly 92.2 µM), without a hit: at the top dose activity change, negative = less growth. AID 651644; active = well fitted falling curve with a large enough effect; inconclusive = small, poorly fitted or top-dose-only effect; inactive = no such curve, though single readings can be large or run the other way;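 also: % is scaled to controls: 0 for no effect and ±100 for the full control effect; nearly all actives have a fitted effect of over 50% in size; the assay follows cell death caused by Vpr and the record does not say whether a fall means rescue or toxicity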
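Fission yeast RE007 carrying one integrated HIV-1 vpr copy, seeded at OD 0.01 in PMG+AL medium with 23 nL pinned compound. Grown 24 h at 30 degrees; viability read by BacTiter-Glo luminescence after 5 min.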
Marburg entry inh: blocks Marburg virus binding to or entry into cells. Marburg virus pseudotyped entry inhibition, cell reporter; control for the full effect not named in the record; about a third of the inactives were read at about 46 µM. Potency, µM (titrated, usually from 37.8 µM), for the others: at the top dose activity change, negative = inhibition, actives largely listed as inhibitors. hit rate 1.8% among 300,000. AID 540276; active = well fitted inhibition curve with a large enough effect; inconclusive = small, poorly fitted or top-dose-only effect, or effect the other way; inactive = flat fitted curve, though single readings scatter; tested in HEK293 cells; about a fifth of its hits are not listed in these tables; also: % is scaled to controls: 0 for no effect and ±100 for the full control effect; luciferase read-out
Cruzain noTriton: blocks cruzain activity in detergent-free assay; P25779; AID 1476; purified cruzain, Z-FR-AMC fluorescence, no detergent; Potency, µM, for the others: max response, negative = inhibition, usual class: inhibitors; hit rate 2.3% among 200,000;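 also: plate controls were enzyme without inhibitor for no effect and buffer without enzyme for full effect; nearly all actives have a fitted effect of over 40% in size; top concentration of the series not given in the record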
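Detergent-free condition (0.00005% Triton X-100) in acetate buffer pH 5.5 with DTT. 1.5 nM enzyme and compound were pre-mixed 15 min, then 2 uM Z-FR-AMC substrate added; reaction progress from fluorescence change between first and third reads (60 s).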
SARS PLpro yeast: blocks SARS-CoV papain-like protease in a yeast assay. S. cerevisiae expressing SARS-CoV PLpro, growth rescue; control for the full effect not named in the record. Potency, µM (top dose mostly 32.9 µM), for the others: at the top dose activity, positive = growth rescue. hit rate 0.19% among 330,000; active means well fitted rising curve with a large enough effect; inconclusive means small, poorly fitted or top-dose-only effect; inactive means no such curve, though single readings can be large or run the other way; also: 0% is about no effect; nearly all actives have a fitted effect of over 55% in size; growth read by luminescence after 48 h
Numbers without * were called inactive; ? = inconclusive; . = not tested or not shown; & = joins results of further samples; [ ] = remark or other dose. Unless noted, calls follow the shape of the dose curve; as a rule, active = well fitted curve in the direction sought with a large enough effect; inconclusive = small, poorly fitted or top-dose-only effect, or another doubt; inactive = no such curve, though single readings can be large; an effect the other way counts as inactive or inconclusive. Potency is read from the fitted curve at half-maximal effect.

SMILES	StopGo reporter	NS1 function inh	Cruzain Triton	LASV entry inh	RE007 growth inh	Marburg entry inh	Cruzain noTriton	SARS PLpro yeast
Cc1ccc(NC(=O)c2ccccc2NC(=O)CCC(=O)O)cc1	31%[activator]	-2%	4.1%	?	-7%	?	25%	16%
O=S(=O)(c1ccc2c(c1)nc1n2CCC1)N1CCOCC1	-17%	3%	-2.1%	0%	-26%	23%	-8%	0%
CCCCn1cc2c(c1-c1ccc(Br)cc1)c(=O)n(C)c(=O)n2C	?	.	-8.5%	-1%[46.1 µM]	.	?	?	.
CCn1c(=N)n(CC(=O)OC)c2ccccc21	-21%	0%	3.0%	-7%	-18%	0%	11%	4%
Cc1ccc(CNC(=O)C2CCCN(S(=O)(=O)c3cn(C)cn3)C2)cc1 (stereo not given)	25%	.	0.7%	?	.	.	-2%	.
Cc1cc(=O)oc2cc(OCC(=O)N3CC(C)OC(C)C3)ccc12 (stereo not given)	3%	-1%	-0.1%	1%	15%	15%[46.1 µM]	3%	-10%
O=C(NCc1ccc(F)cc1)c1ccc(NC(=O)N2CC3CCCN3c3ccccc32)cc1 (stereo not given)	0%	.	-3.5%	-21%[46.1 µM]	.	7%[46.1 µM]	?	.
CCCCC(=O)NC(=S)NNC(=O)CC#N	.	-4%	0.6%	16%	-5%	20%	-5%	1%
Cc1cccc(CN2CCN(CC(=O)N3CCC4(CC3)OCCO4)C2=O)c1	3%	3%	-6.2%	0%	0%	?	-6%	2%
CCc1ccccc1NC(=O)Nc1cccn(Cc2ccccc2F)c1=O	?	-1%	.	.	3%	.	.	1%
CC1CCCN(C(=O)c2ccc(-c3ccccc3Cl)o2)C1 (stereo not given)	52%[activator]	.	.	-14%	-24%	-17%[46.1 µM]	.	-2%
c1ccc(COc2cccc(CNn3cnnc3)c2)cc1	.	?	2.3%	-5%	-4%	23%	-1%	-2%
CC1(C)Cc2c(c(N3CCCC3)nc3sc4c(N5CCNCC5)ncnc4c23)CO1	-25%	4%	.	.	0%	.	.	0%
O=C(Nc1ccc2c(c1)CCCN2C(=O)c1cccs1)c1cccc(C(F)(F)F)c1	?	.	-7.6%	?	.	.	18%	.
COc1ccc(-c2cccc(NC(=O)COc3ccc(Cl)cc3)c2)nn1	?	-54%	.	.	12%	.	.	10%
Cc1c(N=c2scc(-c3ccccc3)n2C)c(=O)n(-c2ccccc2)n1C	-10%	.	.	3%[46.1 µM]	8%	6%[46.1 µM]	.	-1%
Clc1ccccc1CNC1CN2CCC1CC2 (stereo not given)	-15%	?	2.8%	?	-1%	-5%	6%	-3%
COc1ccc(-n2c(Cc3ccccc3)nc3ccccc3c2=O)cc1	-13%	-8%	.	.	10%	.	.	-2%
CCOc1ccccc1NC(=O)CSc1nc(=O)n(Cc2ccncc2)c2c1CCC2	10%	.	.	-4%	18%	-21%	.	-2%
CCOc1ccc(C2C(C(=O)c3ccco3)=C(O)C(=O)N2CCCn2ccnc2)cc1 (stereo not given)	13%	-14%	-5.6%	-10%	-1%	-8%&-8%	-10%	?
O=C(CSc1nnc2ccccn12)NNC(=O)c1ccc(Br)cc1	-3%	-2%	.	17%[46.1 µM]	-20%	10%[46.1 µM]	.	0%
N/C(=N\OC(=O)N1c2ccccc2Sc2ccccc21)c1ccccc1	?	5%	-0.3%	-30%	-19%	-24%	28%	-103%
O=C(CSc1ncnc2c(-c3ccc(Cl)cc3)nsc12)c1ccccc1	.	-93%	-24%	-6%	0%	5%	?	1%
COc1ccc(OC)c(S(=O)(=O)Nc2ccc(C(N)=O)cc2)c1	.	5%	-0.5%	19%	-8%	-1%	-8%	2%
CSCCOC(=O)C1=C(C)Nc2ccc(C)cc2S1	22%	1%	-15%	-7%	-27%	8%	-15%	-4%
Other records
SMILES	StopGo reporter	NS1 function inh	Cruzain Triton	LASV entry inh	RE007 growth inh	Marburg entry inh	Cruzain noTriton	SARS PLpro yeast
O=C(COC(=O)c1ccccc1Nc1ccc(SC(F)F)cc1)NCc1ccco1	10%	2%	-6.8%	-15%	9%	-15%	1%	-9%
Cc1ccc(S(=O)(=O)NCCSc2nnnn2C)cc1	-14%	6%	2.7%	23%	5%	-1%	16%	2%
CC(=O)c1ccccc1NC(=O)CN1C(=O)CS/C1=C\c1nc(-c2ccc(C)cc2)cs1	3%	12%	.	-1%	-18%	17%[46.1 µM]	.	-1%
COC(=O)CSC1=C(C#N)C(c2ccc3c(c2)OCO3)C2=C(CCCC2=O)N1 (stereo not given)	-27%	3%	-2.8%	-4%	4%	-7%	-8%	-4%
CCN(CC(=O)NCc1ccc(F)cc1)C(=O)CN1CCN(c2cc(Cl)ccc2C)CC1	?	-6%	.	-1%	-5%	-23%[46.1 µM]	.	0%
CC(=O)c1cccc(NC(=O)CCC2CCCC2)c1	81%[activator]	-169%	9.2%	?	3%	18%	-5%	-1%
CCCCn1nc2cc(C(=O)NCCCCc3ccccc3)ccc2c1OCC	-22%	13%	0.1%	.	26%	.	9%	1%
Cc1oc(-c2cccc(Cl)c2)nc1CN1CCC(C(=O)NCc2cccnc2)CC1	-16%	0%	-2.7%	-10%	10%	?	6%	-2%
CCC(=O)N1c2ccc(C)cc2C2=NNC(=S)NC21O (stereo not given)	3%	0%	?	-1%	2%	-13%	0.63µM*	2%
COc1ccc(/C=N/NC(=O)c2ccccc2O)cc1CSc1ccccn1	14%	-1%	-9.1%	7%	-9%	6%	?	2%
FC(F)(F)c1cc(-c2ccc3c(c2)OCO3)nc(NCc2ccco2)n1	-9%	6%	-10%	-16%	-12%	?	-8%	-6%
O=C(CCSc1nnc(-c2ccncc2)o1)Nc1cccc(Cl)c1	?	-1%	.	-8%	-2%	1%[46.1 µM]	.	-2%
CCOC(=O)C(NC(=O)Nc1ccc(Cl)cn1)(Oc1ccc(F)cc1)C(F)(F)F (stereo not given)	5%	-2%	-17%	0%	-6%	3%	6%	11%
CCc1nnc(NC(=O)CSc2nnc(-c3ccco3)o2)s1	-14%	.	.	9%	13%	-13%[46.1 µM]	.	-1%
COc1cc(C(=O)Oc2cc(N)n(S(=O)(=O)c3ccc(F)cc3)n2)cc(OC)c1OC	6%	-7%	.	?	-6%	7%[46.1 µM]	.	0%
CCN(CC)Cc1c(O)ccc2c(=O)c(-c3ccc(Cl)cc3)coc12	-7%	-8%	.	.	5%	.	.	1%
Cc1ccc(C2(c3ccc(C)cc3)CC2C(=O)Nc2ccc([N+](=O)[O-])cc2O)cc1 (stereo not given)	-19%	-34%	-13%	13µM*	-5%	?	?	-38%
COc1ccc(/C=N/OCC(=O)Nc2cc(C)on2)cc1OC	-13%	-3%	-2.7%	13%	2%	1%	-3%	?
O=C(NCC(O)c1ccc([N+](=O)[O-])cc1)C(c1ccccc1)c1ccccc1 (stereo not given)	-10%	13%	.	-24%[46.1 µM]	6%	?	.	1%
OCC1(Cc2ccccc2)CCN(Cc2cnc(-c3ccc(Cl)cc3)nc2)CC1	-8%	2%	.	?	-22%	?	.	0%
CC(=O)Oc1oc(-c2ccccc2)nc1C=Nc1ccccc1	-19%	-39%	25µM*	0%	1%	11%	25µM*	2%
CCNC(=O)C1Cc2cc(S(=O)(=O)N3CCCC3)ccc2N1C(C)=O (stereo not given)	-11%	1%	.	-5%[46.1 µM]	-3%	-9%[46.1 µM]	.	2%
CNS(=O)(=O)c1ccc(NC(=O)C2c3ccccc3Oc3ccccc32)cc1	-24%	14%	-4.2%	-14%	-13%	?	-27%	16%
Cc1ccc2onc(CC(=O)O)c2c1	-18%	-8%	2.4%	?	0%	18%	2%	-16%
CCOc1ccccc1NC(=O)CCCn1cc([N+](=O)[O-])cn1	-12%	.	.	0%[46.1 µM]	-24%	-23%[46.1 µM]	.	-4%
(next part)
SMILES	StopGo reporter	NS1 function inh	Cruzain Triton	LASV entry inh	RE007 growth inh	Marburg entry inh	Cruzain noTriton	SARS PLpro yeast
O=S(=O)(c1ccc(F)cc1)N1CCC2(CC1)OCCN2S(=O)(=O)c1cccs1	10%	.	.	?	-4%	-16%[46.1 µM]	.	8%
Cc1nn(-c2ccccc2)c(OC(=O)C(C)C)c1Sc1ccccc1	-19%	.	-2.2%	15%[46.1 µM]	.	?	-7%	.
COc1ccc(/C(N)=N/OC(=O)CN(C)S(=O)(=O)c2ccccc2)cc1	10%	-8%	.	-6%	3%	-1%[46.1 µM]	.	0%
O=C(OCc1ccc(F)cc1)c1cccnc1Cl	-23%	-1%	.	5%	4%	9%[46.1 µM]	.	11%
CCOC(=O)Cn1cc(C(=O)C(=O)N2CCOCC2)c2ccccc21	-6%	-2%	.	.	11%	.	.	?
C=CCn1c(-c2ccc(OC)cc2)nc2ccccc21	2%	-38%	6.2%	12%	?	-6%	7%	-9%
O=C(NCc1ccco1)/C(=C/c1ccc(F)cc1)NC(=O)c1ccccc1	25%	11%	.	15%[46.1 µM]	4%	2%[46.1 µM]	.	1%

Reformatted field by field: entries from further up.
Cc1nn(-c2ccccc2)c(OC(=O)C(C)C)c1Sc1ccccc1
  StopGo reporter: -19% | NS1 function inh: . | Cruzain Triton: -2.2% | LASV entry inh: 15%[46.1 µM] | RE007 growth inh: . | Marburg entry inh: ? | Cruzain noTriton: -7% | SARS PLpro yeast: .
COc1ccc(/C(N)=N/OC(=O)CN(C)S(=O)(=O)c2ccccc2)cc1
  StopGo reporter: 10% | NS1 function inh: -8% | Cruzain Triton: . | LASV entry inh: -6% | RE007 growth inh: 3% | Marburg entry inh: -1%[46.1 µM] | Cruzain noTriton: . | SARS PLpro yeast: 0%
O=C(OCc1ccc(F)cc1)c1cccnc1Cl
  StopGo reporter: -23% | NS1 function inh: -1% | Cruzain Triton: . | LASV entry inh: 5% | RE007 growth inh: 4% | Marburg entry inh: 9%[46.1 µM] | Cruzain noTriton: . | SARS PLpro yeast: 11%
CCOC(=O)Cn1cc(C(=O)C(=O)N2CCOCC2)c2ccccc21
  StopGo reporter: -6% | NS1 function inh: -2% | Cruzain Triton: . | LASV entry inh: . | RE007 growth inh: 11% | Marburg entry inh: . | Cruzain noTriton: . | SARS PLpro yeast: ?

Bioassay records deposited in PubChem by National Center for Advancing Translational Sciences (NCATS).
